HCMV UL50-53 inh – disrupts HCMV UL50-UL53 complex binding; HTRF UL50-UL53 interaction, normalized percent inhibition; inhibition, % (test concentration not listed); actives 0.15% (n = 190,000);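 active means both replicates at 50% or more, plus weaker picks with an unusually low signal ratio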;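 further: stock transfer was 100 nL into about 20 µL; 0% = negative control wells and 100% = wells with untagged competitor protein; inactives centre near -12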
GIV Gai3 FP – GIV-Galpha-i interaction inhibition. actives 0.42% (n = 210,000). percent of control (FP), % (no concentration beside the values). P08753. Galpha-i3/FITC-GIV peptide fluorescence polarization, 90 min; active compounds read low; scaled: aluminum fluoride 0%, vehicle 100%;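 active means replicate mean at 85% of control or lower, very high polarization wells dropped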;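 further: wells of about 15 µL received 100 nL stock; the first replicate is given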
Target sequence (P08753 whole entry, looked up): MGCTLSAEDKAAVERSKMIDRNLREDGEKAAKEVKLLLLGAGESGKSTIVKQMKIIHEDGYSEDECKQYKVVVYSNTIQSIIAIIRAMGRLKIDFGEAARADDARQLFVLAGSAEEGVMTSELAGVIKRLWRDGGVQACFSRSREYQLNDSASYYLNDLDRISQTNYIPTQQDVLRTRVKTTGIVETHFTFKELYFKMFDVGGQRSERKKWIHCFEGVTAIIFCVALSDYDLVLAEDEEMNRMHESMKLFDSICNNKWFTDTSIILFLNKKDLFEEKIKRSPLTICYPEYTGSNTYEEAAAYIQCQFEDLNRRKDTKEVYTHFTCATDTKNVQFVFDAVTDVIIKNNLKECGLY
Sa growth 42C – inhibitors of Staphylococcus aureus growth at 42 °C | S. aureus RN4220 growth, OD600, 20 h; active compounds read low | actives 0.53% (n = 170,000) | relative growth, % (test concentration not listed);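 active means growth at 42 °C up to 50% and 20 or more points under that at 30 °C, or under 10% at both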;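 further: 300 nL library stock went into each well; scaled to the means of positive and negative controls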
Sa growth 42C second temp – also measured in Sa growth 42C; calls as there; relative growth, %; measured here: growth at 30 °C;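 optical density after 20 h as mean of two plates; 100% = untreated growth and lower means inhibition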
The depositor's hits bear a star; · = no result given; & = joins results of further samples. This is a random part of the collection; any-hit rate near 0.8%.

SMILES	HCMV UL50-53 inh	GIV Gai3 FP	Sa growth 42C	Sa growth 42C second temp
COc1cccc(/C=C/c2nc(C#N)c(NCCc3ccc(OC)c(OC)c3)o2)c1	-19	98	105	91
O=c1oc(-c2ccco2)nc2scc(-c3cccs3)c12	-15	95	·	·
CC1SC(c2ccc(Br)cc2)N(c2ccccc2)C1=O (stereo not drawn)	-12	·	97	85
O=C(CCSc1ccccc1Cl)NC1CCCCCC1	-14	·	99	95
CCc1nnc2c(NCCCN3CCN(c4ccccc4)CC3)nc3ccccc3n12	-2	100	95	94
O=C(NCO)c1ccccc1	-21	·	102	80
CCCC(=O)OCc1cnc(C)c2oc(=O)c(C(=O)Nc3ccccc3)cc12	·	107	97	94
O=C1CSC(c2ccc3cccc(O)c3n2)N1c1ccc(F)c(Cl)c1 (stereo not drawn)	-42	97	·	·
O=C(COc1ccc(F)cc1)N(Cc1ccccc1)c1ccccn1	-15	105	95	85
CCCC(=O)OCc1cnc(C)c2oc(=O)c(C(=O)Nc3ccc(F)cc3C)cc12	·	105	99	92
CCOC(=O)c1c(C)c(=O)oc2c1c(=O)[nH]n2-c1ccccc1	-14	99	98	96
COc1ccc(Br)cc1-c1nnc2n(C(C)C)c3c(=O)[nH]c(=O)n(C)c3n12	-26	106	·	·
Cc1nc2ccccn2c1C(=O)N1CCCC(C)C1 (stereo not drawn)	9	98	105	103
CCN(CC)C(=O)c1cc(-c2ccc(C)cc2)on1	-2	·	101	90
Clc1ccc(-c2noc(CNC3CCCCC3)n2)cc1	-39	108	94	86
Cc1nnc(SCC(=O)N(C2CCCCC2)C2CCCCC2)[nH]c1=O	28	108	98	115
Cc1ccc(C(C)C)c(OCC(=O)Nc2ccc3c(c2)nc(CCNC(=O)c2ccco2)n3C)c1	4	104	90	90
CCN(C(=O)Cn1cc(S(=O)(=O)N2CCN(c3ccccc3F)CC2)c2ccccc2c1=O)c1ccc(C)c(C)c1	-8	106	109	100
COC(=O)c1sc(N)c(C(=O)OC)c1COC(=O)[C@H](C)N=C1NS(=O)(=O)c2ccccc21	-26	·	73	83
CCC(C)NC(=O)Cn1c(=O)n(Cc2ccc(C(=O)NCCC(C)C)cc2)c(=O)c2cc(OC)c(OC)cc21 (stereo not drawn)	-16	100	·	·

Four entries drawn at random from those above:
SMILES	HCMV UL50-53 inh	GIV Gai3 FP	Sa growth 42C	Sa growth 42C second temp
O=C(COc1ccc(F)cc1)N(Cc1ccccc1)c1ccccn1	-15	105	95	85
Clc1ccc(-c2noc(CNC3CCCCC3)n2)cc1	-39	108	94	86
CCc1nnc2c(NCCCN3CCN(c4ccccc4)CC3)nc3ccccc3n12	-2	100	95	94
O=C1CSC(c2ccc3cccc(O)c3n2)N1c1ccc(F)c(Cl)c1 (stereo not drawn)	-42	97	·	·

Following part:
SMILES	HCMV UL50-53 inh	GIV Gai3 FP	Sa growth 42C	Sa growth 42C second temp
CCS(=O)(=O)Nc1ccc(C(=O)N2CCN(Cc3ccc4c(c3)OCO4)CC2)cc1	-19	104	99	91
CCc1nc(-c2cc(S(=O)(=O)N3CCCC(C(=O)Nc4cccc(OC)c4)C3)c(C)s2)no1 (stereo not drawn)	-10	111	·	·
CCOC(=O)c1cc(C#N)c(SCC(=O)Nc2ccc(C(C)=O)cc2)[nH]c1=O	-19	100	·	·
CCC1CCCCN1C(=O)CSc1nc2ccccc2[nH]1 (stereo not drawn)	-29	·	126	87
Cc1cc(N2CCCC2)n2nc(-c3ccccc3C)nc2n1	6	106	·	·
CNC(=O)c1ccc(-c2nc(CN3CCN(C(=O)Nc4ccc(C)cc4)CC3)c(C)o2)cc1	-8	105	·	·
CCCCNC(=O)c1ccc2c(c1)NC(=O)C(CS(=O)(=O)Cc1ccccc1C)N2 (stereo not drawn)	-43	188	91	95
O=c1ccc(-c2ccc(S(=O)(=O)N3CCc4ccccc43)o2)n[nH]1	-40	108	110	95
CNC(=O)CSc1nc(-c2ccccc2)c(-c2ccccc2)[nH]1	-16	·	87	84
Cc1c(C(=O)N2CCCC2)oc2ccc3c(c12)C(O)CC(C)(C)O3 (stereo not drawn)	-33	104	111	83
CCC(C)c1ccc2oc(-c3ccc(NC(=O)c4ccc(OC)c(OC)c4)cc3)nc2c1 (stereo not drawn)	2	104	·	·
Cc1ccc(NCCCCO)c(C)c1	-14	99	110	99
Cc1cccc(C)c1NC(=O)C(NS(=O)(=O)c1cccs1)c1ccccc1 (stereo not drawn)	2	110	100	95
Cc1cc(OCc2nc(CC(=O)NCC(C)C)cs2)ccc1Cl	-19	96	·	·
O=C(c1cccc(C(F)(F)F)c1)N(c1ccccn1)C1CCCCC1	-12	·	96	94
Cc1onc(-c2c(Cl)cccc2Cl)c1/C(N)=N/OC(=O)C(C)(C)C	-31	103	99	81
Cc1csc2sc(/C=C(\C#N)S(=O)(=O)c3cccs3)c(C)c12	-17	108	96	85
O=C1CCN(C(=O)Cn2c(C(F)(F)F)nc3ccccc32)CC1	4	·	83	105
Cc1cccc(C)c1NC(=O)CCCN1CC(C)OC(C)C1 (stereo not drawn)	-3	·	115	101
CCCCn1c(SCC(=O)O)nc2c1c(=O)[nH]c(=O)n2C	-21	107	·	·
COc1cc(OC)cc(-c2nc3nc(C)c(CCC(=O)Nc4ccc(C)c(C)c4)c(C)n3n2)c1	-6	96	99	92
CC1CC(=O)Nc2ccccc2N1C(=O)Nc1ccccc1 (stereo not drawn)	-6	102	102	93
O=C(C(c1ccccc1)c1ccccc1)N1CCNCC1	2	·	109	95
COc1ccc(CCNc2nc3ccccc3c3nc(-c4cccc(C)c4)nn23)cc1OC	-9	101	92	81
Nc1nnc2sc(SCC(=O)O)nn2c1=O	-25	110	104	102
N#C/C(=C\c1ccc(Cl)cc1)c1nc(-c2cc3c(ccc4ccccc43)oc2=O)cs1	-42	104	106	86
COc1cc2c(=O)n(Cc3ccc(C(=O)NC4CC4)cc3)c(=O)n(Cc3ccccc3F)c2cc1OC	-27	108	·	·
Cc1oc(-c2ccc(Cl)cc2)cc1COC(=O)Nc1ccccc1	-11	104	96	101
Cc1c(C#N)c2ccccc2n1CC(N)=O	2	·	94	97
CC(=O)Nc1cc(-c2ccc(Br)cc2)nn1Cc1ccc(Cl)cc1	-4	·	94	91
N#C/C(=C\c1ccc(O)cc1)C(N)=S	-67	·	73	82
O=c1cc(CSC2=NCCS2)nc2sccn12	-5	104	100	100
CNS(=O)(=O)c1ccc(CCC(=O)N2CCCCC2)cc1	-29	106	107	96
CCOC(=O)c1cnc2cc(C(C)(C)C)[nH]n2c1=O	8	114	112	88
CC(=O)Nc1ccc(S(=O)(=O)NC23CC4CC(CC(C4)C2)C3)cc1	-3	98	106	94
C=CCNC(=O)c1ccc(OCCCC)cc1	-3	102	118	100
COC(=O)c1sc(NC(=O)CN2CCOCC2)c(C(=O)OC)c1C	-35	·	92	94
COc1ccc(CN2C(=O)NC(=O)/C(=C\c3cc(OC)c(O)c(OC)c3)C2=O)cc1	-21	128	·	·
COc1ccc(CNCc2c(C(=O)O)c(C)n(Cc3ccccc3C)c2C)cc1OC	-7	111	114	90
CC(C)C(=O)Nc1ccc(N2CCCC2)cc1C(=O)O	4	98	·	·

Full records, looked up by structure. Order of values: HCMV UL50-53 inh, GIV Gai3 FP, Sa growth 42C, Sa growth 42C second temp
Entry for COC(=O)c1sc(NC(=O)CN2CCOCC2)c(C(=O)OC)c1C : -35, ·, 92, 94
Entry for O=C(C(c1ccccc1)c1ccccc1)N1CCNCC1 : 2, ·, 109, 95
Entry for O=c1cc(CSC2=NCCS2)nc2sccn12 : -5, 104, 100, 100
Entry for CC(=O)Nc1cc(-c2ccc(Br)cc2)nn1Cc1ccc(Cl)cc1 : -4, ·, 94, 91
Entry for C=CCNC(=O)c1ccc(OCCCC)cc1 : -3, 102, 118, 100

Going on with the list.
SMILES	HCMV UL50-53 inh	GIV Gai3 FP	Sa growth 42C	Sa growth 42C second temp
Cc1cccc(NC(=O)c2oc3ccc(S(=O)(=O)N4CCCCC4)cc3c2C)c1C	·	100	115	96
COc1ccccc1N1CCN(S(=O)(=O)c2ccc3c(c2)C(C2CCCC2)C(=O)N3)CC1 (stereo not drawn)	12	108	101	73
O=C(Cn1cnc2c(cnn2-c2ccccc2)c1=O)NCc1ccccc1	0	104	94	87
O=C(CCCC(=O)Nc1ccc(F)cc1)Nc1ccc(F)cc1	6	·	101	90
c1ccc(-c2noc(N3CCCC3)n2)cc1	-21	100	103	95
CN(C)c1nc(Oc2ccc(=O)[nH]n2)nc(N2CCOCC2)n1	-20	106	98	87
Cc1nc2ncccc2c(=O)n1-c1cccc(NC(=O)c2cc(Br)ccc2Cl)c1	4	102	·	·
COc1cccc(/C=N/NC(=O)c2cccc(Cl)c2)c1O	-27	112	132	86
CCN(CC)S(=O)(=O)c1cccc(C(=O)N=Nc2c(O)[nH]c3ccccc23)c1	4	·	94	101
CC1Cc2ccccc2N1C(=O)c1cccc(C(=O)N2c3ccccc3CC2C)n1 (stereo not drawn)	1	·	97	106
COc1ccc(CCN2C(=O)/C(=C/c3ccccc3Cl)SC2=S)cc1OC	-31	104	105	86
CN1CCc2c(sc(NC(=O)CSc3ccccc3)c2-c2nc3ccccc3s2)C1	·	188&184	114	104
O=C(NC(Cc1ccccc1)C(=O)N1CCCCC1)c1cccs1 (stereo not drawn)	-18	·	99	88
O=c1c2ccccc2n2c(=O)n(Cc3ccc(Cl)cc3)nc2n1Cc1ccccc1	-16	99	·	·
O=c1[nH]c2ccc(NCc3ccc(-c4ccc(Br)cc4)o3)cc2[nH]1	-3	105	98	97
CCc1ccc(Nc2ccc3cc(S(=O)(=O)N4CCCCC4)ccc3n2)cc1	-14	101	·	·
COC(=O)c1ccc(S(=O)(=O)N2CCCN(C(=O)OC(C)(C)C)CC2)n1C	-27	106	93	90
O=C(CSc1nnnn1-c1ccccc1)NCCC12CC3CC(CC(C3)C1)C2	-10	·	111	91
NC(=O)c1ccc(N=Cc2ccc[nH]2)cc1	-7	113	82	80
Cc1ccccc1NC(=S)NN1CCN(C)CC1	2	·	102	85

Results in GIV Gai3 FP, for some of the entries so far:
SMILES,GIV Gai3 FP
CCS(=O)(=O)Nc1ccc(C(=O)N2CCN(Cc3ccc4c(c3)OCO4)CC2)cc1,104
CCc1nc(-c2cc(S(=O)(=O)N3CCCC(C(=O)Nc4cccc(OC)c4)C3)c(C)s2)no1 (stereo not drawn),111

The main list resumes, repeating the 4 entries before the break.
SMILES	HCMV UL50-53 inh	GIV Gai3 FP	Sa growth 42C	Sa growth 42C second temp
COC(=O)c1ccc(S(=O)(=O)N2CCCN(C(=O)OC(C)(C)C)CC2)n1C	-27	106	93	90
O=C(CSc1nnnn1-c1ccccc1)NCCC12CC3CC(CC(C3)C1)C2	-10	·	111	91
NC(=O)c1ccc(N=Cc2ccc[nH]2)cc1	-7	113	82	80
Cc1ccccc1NC(=S)NN1CCN(C)CC1	2	·	102	85
CC(CNC(=O)c1cc2cc(S(=O)(=O)N3CCCCC3)ccc2n1C)c1ccccc1 (stereo not drawn)	·	102	103	91
COc1ccc(OC)c(C2NC(=O)NC(C)=C2C(=O)OCC(F)(F)C(F)(F)F)c1 (stereo not drawn)	-4	102	·	·
Cc1cc2nc(C(=O)Nc3ccc(F)cc3)c(=O)n(C)c2cc1C	-38	100	·	·
Cc1ccc(CNC(=O)c2cccn2-c2nnc(N3CCCC3)s2)cc1	·	100	81	91
COc1cc(C(=O)N2CCN(Cc3ccccc3)CC2)cc(CN2C(=O)c3ccccc3C2=O)c1OC	19	·	107	103
CC1(C)NC(=O)N(CC(O)CNC23CC4CC(CC(C4)C2)C3)C1=O (stereo not drawn)	2	105	102	88
O=C(O)/C=C/c1ccc(/C=C/C(=O)O)cc1	-33	108	99	92
Cc1nnc(-c2cccc(C(F)(F)F)c2)[nH]c1=O	-10	100	·	·

Screening results from PubChem.
